UCH37 DUB inh: inhibitors of human deubiquitinating enzyme UCH37 | purified proteasome/UCH37, Ub-AMC cleavage fluorescence | 330,000 tested, 0.33% active | Q9Y5K5 | inhibition, % (concentration not given with the values);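 active = mean of two replicates above 20%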;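 also: 0% = compound-free wells with enzyme and 100% = wells lacking proteasome; stock transfer was 100 nL into about 20 µL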
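Material: human UCH37 enzyme supplied as purified proteasome complex / Amount: 0.15 nM proteasome as dispensed / Buffer or medium: pH 7.4 Tris-HCl (50 mM) with ovalbumin, ATP-MgCl2, DTT / Times: preincubation 30 min, reaction 25 min, room temperature / Technique: AMC fluorescence from Ub-AMC cleavage, excitation 355 nm, emission 460 nm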
HNF4A DNA FP: change in binding of human HNF4 alpha to DNA; activity change, % at 10 µM; HNF4a-FITC DNA binding, fluorescence polarization, 1 h; 360,000 tested, 0.3% active; P41235; in the data active = activity change above about 30%, passing the limit was not always enough;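 also: controls were the assay level and a saturating level of protein; the project sought stronger binding though the title names inhibitors; some compounds called inactive have numbers as strong as hits; positive values seem to mean higher polarization but the record does not say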
AF4-AF9 inh: blocks AF4 peptide binding to human AF9 | P42568 | AlphaScreen, biotin-AF4 peptide binding to FLAG-AF9 | inhibition, % at 10 µM | 350,000 tested, 0.47% active | AID 651704;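 active = every replicate reaching a set inhibition limit, whatever the replicate mean, cut at about 25% in these data; inconclusive = mean inhibition reaches that limit but some replicates miss it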;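 also: 0% = plate neutral control median and 100% = total signal loss; the record names both 10 and 1 µM as test concentration; the first replicate is given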
Target sequence (P42568 whole entry, looked up): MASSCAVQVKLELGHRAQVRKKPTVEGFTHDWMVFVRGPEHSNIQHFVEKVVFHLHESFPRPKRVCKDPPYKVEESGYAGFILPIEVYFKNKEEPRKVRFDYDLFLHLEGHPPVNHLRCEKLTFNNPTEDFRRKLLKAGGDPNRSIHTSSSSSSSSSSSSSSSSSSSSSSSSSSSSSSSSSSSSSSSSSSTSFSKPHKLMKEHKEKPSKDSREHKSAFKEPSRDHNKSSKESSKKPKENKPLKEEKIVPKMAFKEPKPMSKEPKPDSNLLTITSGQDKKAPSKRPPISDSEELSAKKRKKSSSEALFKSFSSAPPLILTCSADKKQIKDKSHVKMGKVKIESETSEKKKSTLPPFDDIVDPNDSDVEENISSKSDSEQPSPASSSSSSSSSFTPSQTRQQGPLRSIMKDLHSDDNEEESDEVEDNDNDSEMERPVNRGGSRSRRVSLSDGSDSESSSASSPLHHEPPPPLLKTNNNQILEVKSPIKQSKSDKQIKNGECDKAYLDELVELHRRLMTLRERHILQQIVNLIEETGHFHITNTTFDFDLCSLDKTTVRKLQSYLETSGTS
RanGTP-Imp inh: disruptors of Ran-importin-beta complex formation – biochemical, FRET, CFP-Ran, YFP-importin-beta, homogeneous, primary screen; cell-free CFP-Ran/YFP-importin-beta FRET ratio; inhibition, % (no concentration beside the values); 300,000 tested, 1.1% active;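 active = most replicates above 15%; inconclusive = exactly half above 15%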;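 also: 0% = DMSO wells and 100% = Ran loaded with GDP instead of GTP; wells of about 40 µL received 100 nL stock; the first replicate is given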
Vif TR-FRET: HIV-1 Vif–A3G interaction blockers – biochemical, TR-FRET, GST-Vif 1-94, biotin-A3G peptide, dose response retest, primary screen (AID 1117319); TR-FRET GST-Vif / biotin-A3G peptide binding; higher % means a stronger effect; test concentration not given here; strong numbers were not always called active; inhibition, %; hits with a dose series show IC50 in µM; 260,000 tested, 0.57% active;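 active = above the screen mean plus three standard deviations and confirmed in dose response; inconclusive = results disagree or hit not tested in dose response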;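 also: Vif residues 1-94 fused to GST binding biotinylated APOBEC3G peptide 110-148; 0% = full assay without inhibitor and 100% = GST in place of GST-Vif; retest series ran down from 100 µM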
FGF22 binding: shifts melting point of recombinant human FGF22 | Q9HCT0 | recombinant FGF22 thermal shift, SYPRO orange fluorescence; percent of sucrose octasulfate shift, DMSO zero | calls only at 9.99 µM | 340,000 tested, 1.5% active | AID 651658;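 active = melting point raised past a set limit in the mean and every replicate; inconclusive = no clear call; three in four hits are not shown here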
Target sequence (Q9HCT0 whole entry, looked up): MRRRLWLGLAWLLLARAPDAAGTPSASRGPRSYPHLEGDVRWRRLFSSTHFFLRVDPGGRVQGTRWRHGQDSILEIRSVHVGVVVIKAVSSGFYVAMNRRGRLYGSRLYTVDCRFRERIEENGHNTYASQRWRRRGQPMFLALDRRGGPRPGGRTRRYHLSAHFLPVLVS
E coli growth: E. coli growth inhibition; Escherichia coli growth, OD600, 23 h; hits give low values; 330,000 tested, 0.21% active; OD600 absorbance (concentration not given with the values); AID 1053175;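 active = OD600 absorbance below the run mean of sample wells minus 3.6 SD, in any replicate, cut at about 0.56 in these data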;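 also: stock transfer was 300 nL into about 60 µL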
An asterisk follows results filed as active; i = inactive; ? = inconclusive; · = not tested or not shown; & = joins results of further samples. Some of the compounds tested; count on the stated rates, not on these rows.

SMILES,HNF4A DNA FP,AF4-AF9 inh,RanGTP-Imp inh,FGF22 binding,Vif TR-FRET,UCH37 DUB inh,E coli growth
c1ccc(SSc2ccccn2)nc1,0.0,·,1.8,·,·,9.5,0.62
CCc1cc2c(=O)c(-c3nc4ccccc4n3C)c(C(C)C)oc2c(CN2CCN(C)CC2)c1O,-2.8,·,3.6,·,16%,-127,0.72
O=[N+]([O-])c1ccc(CNc2cccc(Cl)c2)s1,-2.2,12,-0.9,i,·,2.8,0.64
O=S(=O)(c1ccc2nc(N3CCN(c4ccc(F)cc4)CC3)ccc2c1)N1CCCCC1,3.6,0.3,1.9,i,·,-15,0.74
CCCCCCOc1ccc(OC(=O)c2cccnc2)cc1,-1.4,·,2.4,·,1%,2.6,0.67
COc1ccc2nc3oc(C(=O)NC4CCN(Cc5ccccc5)CC4)cc3cc2c1,0.7,·,·,·,24%,-135,0.69
Cn1cccc1Cc1nnc(SCC(=O)Nc2ccc(F)cc2F)n1-c1ccc(F)cc1,-1.1,4.2,-3.1,i,19%&2%,0.3,0.72
COc1cc(CNC(=O)Nc2nc(C(N)Cc3ccc(Cl)cc3)cs2)cc(OC)c1OC (stereo unspecified),1.4,8.6,·,i,·,·,·
Cc1ccc(-n2c(C)cc(/C=N/NC(=O)c3ccncc3)c2C)cc1C,-0.1,17,2.7,i,25%,·,·
CS(=O)(=O)N1CCCC(C(=O)NCCCN2CCN(Cc3ccccc3)CC2)C1 (stereo unspecified),-0.5,2.9,-2.6,i,9%,1.5,0.67
CN(C)c1ccc(NC(=S)Nc2ccc3c(c2)c(=O)n(C)n3-c2ccc(C(C)(C)C)cc2)cc1,4.8,18,·,i,·,·,·
COc1cc(/C=N/NC(=O)c2cc[n+]([O-])cc2)ccc1O,2.7,-1.9,2.4,i,·,·,·
O=C(Nc1nnc(SCc2ccc(F)cc2)s1)c1cnccn1,3.8,0.1,4.5,i,8%,5.3,0.65
CC(=O)Nc1nnc(CCS(=O)(=O)c2ccc(Cl)cc2)s1,3.4,-2.7,·,i,·,5.6,0.7
CC(C)[C@H](NC(=O)OCc1ccccc1)C(=O)OCC(=O)N1CCN(c2ccccc2)CC1,0.1,5.1,0.0,i,5%,5.0,0.69
Cc1cc(=O)n2[nH]c(-c3ccccc3)cc2n1,0.4,·,2.0,·,-2%,-5.3,0.72
N#Cc1c(C(F)(F)F)cc(-c2ccc(Cl)cc2)[nH]c1=O,-0.7,·,1.2,·,-7%,i,0.64
COc1ccc(CCNC(=O)c2cnc3ccccn3c2=O)cc1,1.6,-3.1,-4.6,i,-5%,-7.7,0.76
Cc1cccc(C(=O)NCC(=O)NCCSc2ccc(Br)cc2)c1,2.3,-1.5,3.5,i,3%,5.9,0.63
O=C(NNC(=O)c1ccc(-c2ccccc2)cc1)Nc1ccccc1F,-5.8,0.7,-1.8,i,-2%,-0.9,0.73
O=C(c1ccc(OCC2CCCO2)cc1)N1CCN(c2ccccc2)CC1 (stereo unspecified),1.0,·,-2.2,·,5%,0.7,0.73
COc1ccc(C2=NOC(C(=O)N3CCOCC3)C2)cc1OC (stereo unspecified),-1.1,-6.4,3.2,i,4%,6.1,0.7
COc1cc(OC)cc(C(=O)NCC(=O)N2CCN(c3ccc(O)cc3)CC2)c1,-1.1,1.1,1.9,i,·,2.2,0.72
Cc1cccc(Nc2c([N+](=O)[O-])c(=O)n(C)c3ccccc23)c1,0.6,·,4.9,·,22%,6.3,0.62
CC(=O)C1=C(O)C(=O)N(Cc2ccccc2)C1c1ccc(F)cc1 (stereo unspecified),-1.1,-2.6,-4.7,i,-9%,8.0,0.66
COc1ccc(NS(=O)(=O)NC(=O)c2c(C)n(C)c3ccccc23)cc1,3.6,2.2,-4.6,i,4%,1.3,0.63
COc1ccc(-c2n[nH]c3c2CN(C(=O)c2ccccc2)CC3)cc1,-0.3,2.7,0.5,i,-6%,4.5,0.71
CS(=O)(=O)N(Cc1ccccc1)c1ccc(C(=O)Nc2ccc3c(c2)OCO3)cc1,2.0,·,2.5,·,-2%,0.5,0.7
CCOC(=O)C(=CNc1cc(Cl)c(-c2ccco2)c(Cl)c1)C(=O)OCC,-1.3,-0.1,6.7,i,21%,-22,0.69
Cc1c(C)c2ccc(OCC(=O)N3CCN(c4ccc(F)cc4)CC3)c(C)c2oc1=O,0.3,-1.9,-0.9,i,-3%,-7.6,0.62
CCn1c2ccccc2c2cc(NC(C)=O)ccc21,3.0,·,2.4,·,-5%,1.0,0.72
CSc1nnc(N2C(=O)C(O)=C(C(=O)c3ccco3)C2c2ccc(F)cc2)s1 (stereo unspecified),-27,-0.5,-3.7,i,·,6.8,0.68
CCN1C(=O)N[C@@H](c2cccc(C(F)(F)F)c2)C(C(=O)OC)=C1C,-0.6,-1.2,1.2,i,·,1.4,·
S=C1NCN(Cc2ccco2)CN1c1cccc2ccccc12,-1.2,-0.9,6.4,i,6%,0.5,0.63
C=CCn1c(NC(C)c2cc(Cl)ccc2O)nc2ccccc21 (stereo unspecified),2.4,4.2,5.3,i,0%,5.5,0.69
CN(Cc1ccccc1Cl)C(=O)C1CCC(=O)N(CCc2cccc(F)c2)C1 (stereo unspecified),4.4,-1.6,-0.2,i,·,1.6,0.72
CN(C)c1nnnn1Cc1ccc(Cl)cc1Cl,0.3,-1.9,?,i,-11%,2.9,0.72
CCOC(=O)/C(=N\Nc1ccccc1Cl)N1CCN(c2ccccc2OC)CC1,-0.6,15,4.4,i,-4%,·,·
CCCOc1c(OC)cc(Cl)cc1C1NC(=O)NC(C)=C1C(=O)NCc1ccccc1 (stereo unspecified),1.9,·,0.4,·,-1%,2.1,0.67
Clc1ccc(Nc2c3c(nc4ncnn24)CCC3)cc1,-1.7,-1.2,-0.1,i,-10%,4.9,0.67
Cc1ccc(SC(C)C(=O)NCc2cccnc2)cc1 (stereo unspecified),3.0,·,-2.0,·,6%,4.3,0.69
CCCCn1c(N)c(N(CC)C(=O)c2cc(C)cc(C)c2)c(=O)[nH]c1=O,-0.9,0.0,-0.6,i,·,5.3,0.64
COc1ccc(C(=O)N(C)Cc2ccc(C)o2)cc1OC1CCN(C(C)=O)CC1,-0.3,-0.1,3.9,i,·,-3.5,0.68
Cc1cc(C)cc(-c2nc(-c3ccncc3)no2)c1,-0.2,-3.5,?,i,3%,5.7,0.72
CCCCN=C(C)C1=C(O)CSC1=O,-1.4,·,0.0,·,2%,·,0.69
CCCCCCCCN1C(=O)[C@H](CC(=O)N2CCN(C(=O)OCC)CC2)C[C@@]2(C(=O)OC)CC(C)(C)CC=C12,1.9,-0.7,·,i,·,·,·
COc1ccc(/C=C/C(=O)NNc2cc(=O)n(C)c(=O)n2C)cc1OC,-1.6,-24,4.2,i,0%,-30,0.69
Cc1ccc(C(=O)N2CCN(S(=O)(=O)c3ccc(Br)cc3)CC2)o1,-0.4,2.0,-1.9,i,·,1.9,0.65
CC(=O)c1c(C)n(CC(=O)NCc2ccco2)c2ccccc12,-1.6,1.1,-1.4,i,11%,2.8,0.69
COc1ccc([C@H]2C[C@H](n3cc(COC(=O)c4ccccc4)nn3)[C@@H](O)CN2CC2CCCCC2)cc1,0.7,-8.7,·,i,-10%,·,·

(cont.)
SMILES,HNF4A DNA FP,AF4-AF9 inh,RanGTP-Imp inh,FGF22 binding,Vif TR-FRET,UCH37 DUB inh,E coli growth
CCn1nnc(NC(=O)c2ccco2)n1,-3.4,-12,-7.5,i,·,-0.4,0.7
O=c1[nH]c(CSc2nnc(COc3ccccc3)n2-c2ccccc2)nc2ccccc12,0.1,·,0.1,·,-1%,-2.6,0.68
COc1ccccc1NC(=O)Nc1nc(CC(=O)Nc2ccccc2F)cs1,4.5,0.5,1.5,i,4%,5.4,0.67
COc1ccc(N2CCN(C(=O)c3ccc(COc4ccc([N+](=O)[O-])cc4)o3)CC2)cc1,2.7,0.8,-5.5,i,·,4.6,0.73
O=C(COc1nsnc1N1CCOCC1)Nc1ccc(Br)cc1,1.9,-9.3,-0.3,i,2%,-0.9,0.63
O=C(NC(=S)Nc1cc(-c2nc3ccccc3[nH]2)ccc1Cl)c1ccc2c(c1)OCO2,12,·,-2.2,·,6%,·,·
COc1cc(C(=O)Nc2ccc3c(c2)C(=O)N(CCC(=O)O)C3=O)cc(OC)c1OC,-0.4,·,-4.1,·,0%,5.4,0.8
C/C(CC(C)C)=N\NC(=O)Nc1ccccc1,13,-1.7,-0.1,i,·,·,·
COc1ccc(/C=N/n2cnnc2SCc2ccccc2)cc1,-1.0,·,6.2,·,25%,·,·
CCOC(=O)CN(C(=O)CSc1nnc(-c2ccncc2)n1CCCOC)c1ccccc1,2.7,·,-4.0,·,-3%,-0.4,0.7
Brc1cccc(CNCc2cccs2)c1,-1.9,·,-0.8,·,·,2.3,0.7
Cc1ccc(S(=O)(=O)N2CCOCC2)cc1C(=O)OCC(=O)NCCc1ccc(F)cc1,2.5,1.5,·,i,·,0.1,0.65
Cc1onc(-c2ccccc2Cl)c1C(=O)N1CCN(c2cccc(Cl)c2)CC1,3.9,3.0,-2.6,i,95µM*,6.6,0.78
O=C(CCCCl)NC(=S)Nc1ccc(CN2CCOCC2)cc1,2.6,0.7,0.7,i,7%,-1.0,0.68
CC(C)(C)c1nnc(NC(=O)c2cccnc2Cl)s1,-1.9,-0.4,0.0,i,-3%,2.2,0.71
N#Cc1ccsc1NC(=O)COC(=O)c1ccc2ccccc2c1,15,·,2.8,·,·,-7.8,0.74
CC(O)(c1cccs1)C(C(=O)O)c1ccccc1 (stereo unspecified),0.2,-1.4,·,i,-6%,0.3,0.67
Cc1ccc2c(N)c(C)ccc2c1,0.3,·,-1.8,·,2%,-148,0.78
O=C1Nc2cc(Cl)c(Cl)cc2N(O)N1c1ccccc1Cl,-0.2,-0.5,2.0,i,3%,1.3,0.7
N/C(=N\OC(=O)c1ccc(Cl)cc1[N+](=O)[O-])c1cccnc1,-0.2,1.0,3.4,i,·,·,·

Quoted from the listing.
CN(Cc1ccccc1Cl)C(=O)C1CCC(=O)N(CCc2cccc(F)c2)C1 (stereo unspecified) in HNF4A DNA FP shows 4.4
CCCCCCCCN1C(=O)[C@H](CC(=O)N2CCN(C(=O)OCC)CC2)C[C@@]2(C(=O)OC)CC(C)(C)CC=C12 in AF4-AF9 inh shows -0.7

Source: PubChem
